# Cruzain noTriton: inhibitors of Trypanosoma cruzi cruzain without detergent. P25779. purified cruzain, Z-FR-AMC fluorescence, no detergent. Potency, µM, for inactives: max response, negative = inhibition, usual class: inhibitors. 200,000 compounds, 2.3% hits;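 also: plate controls were enzyme without inhibitor for no effect and buffer without enzyme for full effect; nearly all actives have a fitted effect of over 40% in size; top concentration of the series not given in the record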
# Target sequence (P25779 123-467 limits assumed): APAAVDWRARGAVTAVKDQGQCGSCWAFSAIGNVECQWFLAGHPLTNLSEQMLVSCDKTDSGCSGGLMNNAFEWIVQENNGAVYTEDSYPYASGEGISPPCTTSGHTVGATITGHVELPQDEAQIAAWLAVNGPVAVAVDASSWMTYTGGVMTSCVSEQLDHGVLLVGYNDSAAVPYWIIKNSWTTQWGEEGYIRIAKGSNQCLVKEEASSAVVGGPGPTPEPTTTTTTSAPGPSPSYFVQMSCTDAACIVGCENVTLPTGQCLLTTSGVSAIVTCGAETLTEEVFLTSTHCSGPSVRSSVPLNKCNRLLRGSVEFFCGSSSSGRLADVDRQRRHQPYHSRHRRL
#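 Detergent-free condition (0.00005% Triton X-100) in acetate buffer pH 5.5 with DTT. 1.5 nM enzyme and compound were pre-mixed 15 min, then 2 uM Z-FR-AMC substrate added; reaction progress from fluorescence change between first and third reads (60 s).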
# 2A StopGo: lowers the luciferase signal of an FMDV 2A StopGo reporter; human cells with a luciferase reporter of 2A StopGo recoding; control for the full effect not named in the record; Potency, µM (highest dose often 57.9 µM), inactives show top-dose signal change, negative = less light; 410,000 compounds, 1.2% hits; AID 1159524; active = well fitted falling curve with a large enough effect; inconclusive = small, poorly fitted or top-dose-only effect; inactive = no such curve, though single readings can be large or run the other way; tested in HEK293T cells; also: % is scaled to controls: 0 for no effect and ±100 for the full control effect; nearly all actives have a fitted effect of over 45% in size; luciferase light after 4 h
# NS1 inh: inhibitors of influenza NS1 protein function | S. cerevisiae slowed by influenza A NS1, growth recovery by OD600 | Potency, µM (doses to about 46.1 µM), without a hit: top-dose activity, positive = more growth | 270,000 compounds, 0.4% hits | AID 2326; active means well fitted rising curve with a large enough effect; inconclusive means small, poorly fitted or top-dose-only effect; inactive means no such curve, though single readings can be large or run the other way; also: nearly all actives have a fitted effect of over 50% in size
#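 Compounds were scored for reversing the slow growth caused by influenza A NS1 in S. cerevisiae, measured by optical density at 600 nm. Assay medium contained 2% galactose at pH 6.0; NS1-free yeast of the same strain were the positive control.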
# Cruzain Triton: blocks cruzain activity in presence of Triton detergent. purified cruzain, Z-FR-AMC fluorescence, 0.01% Triton. Potency, µM, inactives show max response, negative = inhibition, actives largely listed as inhibitors. 200,000 compounds, 0.43% hits;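 also: plate controls were neutral wells for no effect and buffer without enzyme for full effect; nearly all actives have a fitted effect of over 40% in size; top concentration of the series not given in the record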
#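 Sodium acetate buffer (100 mM, pH 5.5) containing 5 mM DTT and 0.01% Triton X-100 hosted 1.5 nM cruzain and test compound for 15 min at room temperature. Cleavage of 2 uM Z-FR-AMC was then tracked by fluorescence.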
# LASV entry inh: inhibitors of Lassa virus binding or cell entry; Potency, µM (series often up to 37.9 µM), for the others: at the top dose activity change, negative = inhibition, usual class: inhibitors; AID 540256; Lassa virus pseudotype entry inhibition, cell reporter; control for the full effect not named in the record; 300,000 compounds, 1.2% hits; active means well fitted inhibition curve with a large enough effect; inconclusive means small, poorly fitted or top-dose-only effect, or effect the other way; inactive means flat fitted curve, though single readings scatter; tested in HEK293 cells; also: % is scaled to controls: 0 for no effect and ±100 for the full control effect; nearly all actives have a fitted effect of over 50% in size; luciferase read-out
# Marburg entry inh: Marburg virus entry inhibition; 300,000 compounds, 1.8% hits; Marburg virus pseudotyped entry inhibition, cell reporter; control for the full effect not named in the record; about a third of the inactives were read at about 46 µM; Potency, µM (top dose mostly 37.8 µM), without a hit: top-dose activity change, negative = inhibition, hits mostly inhibitors; active = well fitted inhibition curve with a large enough effect; inconclusive = small, poorly fitted or top-dose-only effect, or effect the other way; inactive = flat fitted curve, though single readings scatter; tested in HEK293 cells; about a fifth of its hits are not listed in these tables; also: % is scaled to controls: 0 for no effect and ±100 for the full control effect; luciferase read-out
# SARS PLpro yeast: SARS-CoV PLP inhibition in yeast; S. cerevisiae expressing SARS-CoV PLpro, growth rescue; control for the full effect not named in the record; 330,000 compounds, 0.19% hits; AID 485353; Potency, µM (doses to about 32.9 µM), without a hit: top-dose activity, positive = growth rescue; active means well fitted rising curve with a large enough effect; inconclusive means small, poorly fitted or top-dose-only effect; inactive means no such curve, though single readings can be large or run the other way; also: 0% is about no effect; nearly all actives have a fitted effect of over 55% in size; growth read by luminescence after 48 h
# RE007 growth inh: less growth of the S. pombe RE007 Vpr strain | S. pombe RE007 Vpr strain, BacTiter-Glo ATP luminescence, 24 h; control for the full effect not named in the record | Potency, µM (titrated, usually from 92.2 µM), for the others: at the highest dose activity change, negative = less growth | 360,000 compounds, 0.21% hits | AID 651644; active = well fitted falling curve with a large enough effect; inconclusive = small, poorly fitted or top-dose-only effect; inactive = no such curve, though single readings can be large or run the other way;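 also: % is scaled to controls: 0 for no effect and ±100 for the full control effect; nearly all actives have a fitted effect of over 50% in size; the assay follows cell death caused by Vpr and the record does not say whether a fall means rescue or toxicity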
#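 Fission yeast RE007 carrying one integrated HIV-1 vpr copy, seeded at OD 0.01 in PMG+AL medium with 23 nL pinned compound. Grown 24 h at 30 degrees; viability read by BacTiter-Glo luminescence after 5 min.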
# * marks the source's active call; other numbers are inactive results; ? = inconclusive; nt = not tested or not shown; & = joins results of further samples; [ ] = dose if it differs, or a comment. Unless noted, calls follow the shape of the dose curve; as a rule, active = well fitted curve in the direction sought with a large enough effect; inconclusive = small, poorly fitted or top-dose-only effect, or another doubt; inactive = no such curve, though single readings can be large; an effect the other way counts as inactive or inconclusive. Potency is read from the fitted curve at half-maximal effect.
structure,Cruzain noTriton,2A StopGo,NS1 inh,Cruzain Triton,LASV entry inh,Marburg entry inh,SARS PLpro yeast,RE007 growth inh
COC(=O)c1cc(-c2ccc(OC)c(OC)c2)n[nH]1,0%,2%,-10%,0.4%,3%,9%,2%,2%
CCO/C(C)=C1\C(=O)Nc2ccccc21,1%,-21%,-11%,1.6%,-1%,5%,1%,4%
O=C(/C=C/c1cccc(Cl)c1Cl)OCC(=O)N1CCOCC1,nt,57%[activator],nt,nt,-1%[46.1 µM],8%,-12%,7%
COc1ccc(NC(=O)Cn2nnc(C(=O)NCc3ccco3)c2N)cc1,nt,7%,11%,nt,nt,nt,1%,-13%
CCOCCCNC(=O)Cn1cc2c(n1)-c1c(oc(C(=O)N3CCCC3)c1C)CC2,1%,-21%&-13%,nt,-0.5%,-2%[46.1 µM],nt,nt,5%
CN1CCC(=NNc2ncnc3sc4c(c23)CCCC4)CC1,-14%,-25%,16%,-3.1%,3%,?,4%,-3%
CCOc1ccc(NC(=O)CCNC(=O)c2ccc(Br)cc2)cc1,nt,26%,-5%,nt,5%[46.1 µM],?,?,-12%
Cc1nc(SCC(=O)NC(=O)NC(C)C)nc(C)c1C,nt,-5%,5%,nt,-7%,16%[46.1 µM],1%,7%
CCn1c(SCC(=O)Nc2nc(-c3ccc(C)cc3)cs2)nnc1-c1ccccc1O,?,16µM*,9%,-6.6%,?,?,-12%,71%
COCCN(C(=O)c1ccccc1F)c1nc(-c2ccc(OC)cc2)cs1,nt,8%,28%,nt,-21%,?,7%,-5%
COc1ccc(CCn2c(-c3ccc(OC)cc3)nc3c(c(=O)c4ccccc4n3C)c2=O)cc1,nt,-20%,5%,nt,-5%[46.1 µM],?,-1%,10%
CC(=O)Nc1ccc(NC(=O)COC(=O)C2(c3ccc(Cl)cc3)CCCC2)cc1,?,28µM*,0%,-9.5%,?,13µM*,-7%,5%
COC(=O)C(NC(=O)c1ccccc1)=C(C)C,1%,-19%,2%,-2.0%,0%,4%,5%,-5%
CCn1ccc2c(OCC(=O)NCc3ccc(F)cc3)cccc2c1=O,-15%,-5%,nt,0.3%,?,nt,nt,nt
S=C(Nc1ccccc1)Nc1ccc(OCc2ccc(Cl)cc2Cl)cc1,-28%,0.32µM*,8%,0.4%,?,?,-3%,-8%
CO/N=C\c1cc(C(=O)c2ccc(Cl)cc2Cl)cn1C,nt,?,nt,nt,nt,?,-4%,22%
CN1CCN(C(=O)c2cnn(-c3ccccc3)c2NC(=O)c2ccccc2Cl)CC1,nt,-12%,-1%,nt,6%,-2%,-5%,1%
Cc1cccc(N2CCN(C(=O)CCn3c(=O)[nH]c4ccccc4c3=O)CC2)c1C,14%,0%,-37%,-4.8%,?,?,6%,6%
Cc1cccc(CNC(=O)CSCc2cnn(-c3ccccc3)c2-n2cccc2)c1,4%,-20%,nt,-8.7%,-27%[46.1 µM],-16%[46.1 µM],nt,nt
O=S(=O)(c1ccc(NC(=S)N/N=C/c2ccc(N3CCOCC3)cc2)cc1)N1CCOCC1,?,0%,?,-28%,?,-5%,0%,?
O=C(CCN1CCCCO1)N1CCCC(Nc2ccc(F)cc2)C1 (stereo not given),nt,-5%,8%,nt,-11%,-1%,2%,-23%
CN(c1ccc(OCc2nnc(-c3ccccc3)o2)cc1)S(=O)(=O)c1ccccc1,-16%,?,-45%,-4.7%,?,?,-2%,-5%
CCOc1cc(C2NC(=O)NC(O)(C(F)(F)F)C2C(=O)c2ccc(Cl)cc2)ccc1O (stereo not given),?,nt,0%,0.5%,0%,-4%,3%,-11%
COC(=O)CSc1[nH]c2ccccc2c1[N+](=O)[O-],nt,-20%,-34%,nt,nt,nt,-3%,-4%

# Among those listed so far, 3 have an NH in an aromatic ring:
structure,Cruzain noTriton,2A StopGo,NS1 inh,Cruzain Triton,LASV entry inh,Marburg entry inh,SARS PLpro yeast,RE007 growth inh
COC(=O)c1cc(-c2ccc(OC)c(OC)c2)n[nH]1,0%,2%,-10%,0.4%,3%,9%,2%,2%
Cc1cccc(N2CCN(C(=O)CCn3c(=O)[nH]c4ccccc4c3=O)CC2)c1C,14%,0%,-37%,-4.8%,?,?,6%,6%
COC(=O)CSc1[nH]c2ccccc2c1[N+](=O)[O-],nt,-20%,-34%,nt,nt,nt,-3%,-4%

# Remaining list, next part.
structure,Cruzain noTriton,2A StopGo,NS1 inh,Cruzain Triton,LASV entry inh,Marburg entry inh,SARS PLpro yeast,RE007 growth inh
O=[N+]([O-])c1cc(/C=N\Nc2nccs2)ccc1O,32µM*,nt,-64%,18µM*,nt,0%,0%,nt
COc1ccc(CC(=O)NCc2nnc(SCC(=O)Nc3ncc(C)s3)n2C)cc1,nt,-13%,nt,nt,1%,-10%,0%,3%
Cc1cc(C)c(NC(=O)c2cc3c(=O)n4ccccc4nc3n2C)c(C)c1,-4%,?,nt,-1.2%,-23%[46.1 µM],nt,nt,nt
COc1cccc(Cn2nnc(C(=O)NCCc3ccc(Cl)cc3)c2N)c1,-2%,-15%,7%,-5.7%,nt,5%,0%,3%
Cc1ccc(S(=O)(=O)/N=C(\Sc2ccccc2)c2ccccc2)cc1,-1%,11%,1%,1.5%,-29%,-18%,0%,-18%
COc1cccc(-c2noc(CCC(=O)NCCc3ccccc3)n2)c1,nt,-1%,-10%,nt,nt,nt,-4%,-1%
Cc1ccc(Cl)cc1NC(=O)c1ccc(Cn2cc(Cl)cn2)cc1,6%,-6%,7%,-9.8%,?,?,-7%,-8%
CCN(CCn1cccn1)C(=O)c1ccc2nc(Cc3ccc(OC)cc3)oc2c1,nt,8%,-2%,nt,nt,nt,-4%,-11%
CC(=O)C(N=Nc1ccccc1)(Sc1nnc(-c2ccccc2)n1-c1ccccc1)C(C)=O,-25%,-16%,-8%,1.1%,?,?,-9%,0%
N/C(=N\OC(=O)c1ccccc1)c1ccncc1,nt,-6%,-2%,nt,0%[46.1 µM],15%[46.1 µM],-2%,-18%
NC(=S)N/N=C/c1coc2cc(Cl)ccc2c1=O,?,4%,-36%,-8.9%,0%,27%,-59%,-12%
N#Cc1c(NC(=O)c2cc3nc(-c4ccc(Br)cc4)cc(C(F)(F)F)n3n2)sc2c1CCCC2,2%,-1%,nt,0.2%,0%[46.1 µM],nt,nt,nt
O=C(CSC1CCCCC1)Nc1nccs1,-12%,23%,-2%,-2.2%,16%,24%,-2%,25%
CCOC(=O)C1CCN(C(=O)c2cc(COc3ccc(OC)c4ccccc34)on2)CC1,nt,9%,4%,nt,nt,nt,-13%,-3%
CCC(C(=O)NCCc1ccc(Cl)cc1)n1ccc2cc(S(=O)(=O)N3CCCCC3)ccc21 (stereo not given),0%,26%,nt,-4.3%,-21%[46.1 µM],nt,nt,nt
CSc1cccc(NC(C)=O)c1,-4%,-10%,-11%,-0.3%,1%,15%,9%,5%
COc1ccc2cc(C(=O)NCc3ccco3)c(=O)oc2c1,1%,35%[activator],-10%[9.22 µM],-7.8%,27%,12%,2%,-4%
COc1ccc(N2CCN(c3csc4ccccc4c3=O)CC2)cc1,-10%,-13%,nt,-3.2%,?,nt,nt,nt
Cc1csc(NC(=O)c2ccco2)n1,-2%,21%,-2%,3.6%,-12%,?,1%,-18%
CCC(=O)Nc1c2c(nn1-c1ccccc1)CSC2,nt,15%,2%,nt,nt,nt,-3%,6%
Cc1nn(C)c(C)c1CNC(=O)/C=C/c1ccccc1F,1%,7%,-3%,-1.4%,-3%,?,13%,-1%
COc1cccc(OCC(O)CN2CCC(Cc3ccccc3)CC2)c1 (stereo not given),1%,-24%,-3%,-3.6%,-25%,?,-4%,-10%
CC(=Nc1ccc(C)c(C)c1)C1=C(O)CCC1=O,-1%,25%,-2%,-0.1%,0%,?,-3%,26%
O=C(COC(=O)c1ccc2ncsc2c1)NC(=O)NCc1ccccc1,nt,7%,nt,nt,22%[46.1 µM],-20%[46.1 µM],1%,11%
COc1cccc(OC)c1C(=O)Nc1ccnn1C,nt,-18%,0%,nt,nt,nt,-5%,-3%
N#CCCn1cc(C(CC(=O)c2ccccc2)C(=O)O)c2ccccc21 (stereo not given),1%,46%[activator],?,0.0%,-2%,-3%[46.1 µM],20%,-7%
COc1ccc(-n2nc(C(=O)N3CCCCC3)c3ccccc3c2=O)cc1,5%,-27%,-6%,3.1%,-1%,13%,-1%,-7%
CCOc1ccc(NC(=O)Cn2sc3nc(C)cc(C)c3c2=O)cc1,nt,-11%,12%,nt,2%,6%[46.1 µM],-4%,-16%
COc1ccc(OC)c(CNC(=O)c2cnc(N(C)C)nc2)c1,-8%,-6%,nt,-0.2%,nt,nt,nt,nt
COc1ccc(-c2noc(CCCOc3ccc(Cl)cc3Cl)n2)cc1,-2%,-11%,3%,0.1%,?,-5%,-16%,4%
Cc1[nH]n(-c2ccccc2)c(=O)c1/C=N/NC(=O)C(C)C,nt,11%,1%,nt,nt,nt,-1%,-20%
COc1cc(OC)c(Nc2cc(C)nc3nc(C)nn23)cc1Cl,-6%,0%,1%,-1.9%,nt,-2%,2%,-6%
COc1ccc(OC)c(NC(=O)c2cnc(Nc3ccccc3OC)c3ccccc23)c1,?,-20%,17%,-7.2%,?,?,1%,-17%
CC(C)c1ccc(C2C(C(=O)c3ccco3)=C(O)C(=O)N2CC2CCCO2)cc1 (stereo not given),nt,15%,?,nt,4%,15%[46.1 µM],1%,3%
C=CCC1(C#N)C(=S)NC2=C(C(=O)CC(C)(C)C2)C1c1ccc(Br)cc1 (stereo not given),3%,-22%,19%,-6.7%,?,?,-2%,-8%

# Screening data deposited in PubChem BioAssay by National Center for Advancing Translational Sciences (NCATS).

# The order is random; overall some 4.8% were active at least once.
